# Compound activity: PubChem BioAssay, several laboratories
# HNF4A DNA FP = change in binding of human HNF4 alpha to DNA | activity change, % at 10 µM | AID 1224865 | P41235 | HNF4a-FITC DNA binding, fluorescence polarization, 1 h | hit rate 0.3% among 360,000; in the data active = activity change above about 30%, passing the limit was not always enough;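 also: controls were the assay level and a saturating level of protein; the project sought stronger binding though the title names inhibitors; some compounds called inactive have numbers as strong as hits; positive values seem to mean higher polarization but the record does not say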
# Target sequence (P41235 whole entry, looked up): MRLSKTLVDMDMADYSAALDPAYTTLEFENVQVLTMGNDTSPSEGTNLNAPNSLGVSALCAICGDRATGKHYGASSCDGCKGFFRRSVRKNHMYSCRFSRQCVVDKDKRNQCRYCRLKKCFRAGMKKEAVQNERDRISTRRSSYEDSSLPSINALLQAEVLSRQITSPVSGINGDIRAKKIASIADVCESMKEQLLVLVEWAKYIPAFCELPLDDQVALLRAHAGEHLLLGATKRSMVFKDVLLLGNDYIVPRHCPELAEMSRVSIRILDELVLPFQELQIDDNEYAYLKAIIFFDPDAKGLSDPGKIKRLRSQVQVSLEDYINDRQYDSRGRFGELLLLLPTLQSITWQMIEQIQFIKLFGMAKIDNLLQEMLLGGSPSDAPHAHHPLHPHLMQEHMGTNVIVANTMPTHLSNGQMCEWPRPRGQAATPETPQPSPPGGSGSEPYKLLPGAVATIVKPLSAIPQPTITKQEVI
# Ecoli rRNA inh = inhibitors of bacterial rRNA selective over humanized ribosomes; E. coli WT GFP vs humanized-ribosome RFP mutants, fluorescence, 24 h; active compounds read low; DMSO median 0, no signal -100; GFP signal change (wild-type ribosome), % (test concentration not listed); hit rate 1.6% among 350,000; AID 720706;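 active = significant combined selectivity score with lowered wild-type GFP, culture density cut under 30%, mutant RFP and density less affected; inactive = any of these conditions unmet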; also: one replicate is shown; some compounds called inactive have numbers as strong as hits
# ALR inh = human ALR oxidase inhibition via reduced H2O2. P55789. purified ALR, DTT oxidation, H2O2 HRP-luminol luminescence. hit rate 3.8% among 290,000. inhibition, % (concentration not given with the values);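 active = mean and each replicate at 75% or more; inconclusive = only one of the two met; inactive = neither met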;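 also: stock transfer was 7.5 nL into about 7.5 µL; 0% = neutral wells and 100% = wells with inactivated enzyme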
# Target sequence (P55789 whole entry, looked up): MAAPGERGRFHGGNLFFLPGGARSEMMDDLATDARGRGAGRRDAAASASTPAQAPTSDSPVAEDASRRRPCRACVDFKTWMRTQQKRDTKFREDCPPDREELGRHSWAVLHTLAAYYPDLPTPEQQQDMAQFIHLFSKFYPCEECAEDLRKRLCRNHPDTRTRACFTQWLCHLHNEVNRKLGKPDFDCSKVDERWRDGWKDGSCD
# MLL AF4-AF9 inh = inhibitors of human MLL-AF4/AF9 interaction; P42568; AlphaScreen, biotin-AF4 peptide binding to FLAG-AF9; inhibition, % at 10 µM; hit rate 0.47% among 350,000; AID 651704;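 active = every replicate reaching a set inhibition limit, whatever the replicate mean, cut at about 25% in these data; inconclusive = mean inhibition reaches that limit but some replicates miss it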;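 also: 0% = plate neutral control median and 100% = total signal loss; the record names both 10 and 1 µM as test concentration; the first replicate is given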
# Ecoli growth = blocks Escherichia coli growth | OD600, 23 h; active compounds read low | OD600 absorbance (concentration not given with the values) | hit rate 0.21% among 330,000 | AID 1053175;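 active = OD600 absorbance below the run mean of sample wells minus 3.6 SD, in any replicate, cut at about 0.56 in these data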;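 also: stock transfer was 300 nL into about 60 µL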
# Vif A3G = HIV-1 Vif–A3G interaction blockers – biochemical, TR-FRET, GST-Vif 1-94, biotin-A3G peptide, dose response retest, primary screen (AID 1117319); TR-FRET GST-Vif / biotin-A3G peptide binding; higher % means a stronger effect; test concentration not given here; strong numbers were not always called active; inhibition, %; hits with a dose series show IC50 in µM; hit rate 0.57% among 260,000;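 active = above the screen mean plus three standard deviations and confirmed in dose response; inconclusive = results disagree or hit not tested in dose response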;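 also: Vif residues 1-94 fused to GST binding biotinylated APOBEC3G peptide 110-148; 0% = full assay without inhibitor and 100% = GST in place of GST-Vif; retest series ran down from 100 µM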
# FGF22 binding = binders of recombinant human FGF22 by thermal shift. AID 651658. hit rate 1.5% among 340,000. calls only at 9.99 µM. SYPRO orange fluorescence; percent of sucrose octasulfate shift, DMSO zero;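 active = melting point raised past a set limit in the mean and every replicate; inconclusive = no clear call; three in four hits are not shown here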
# Target sequence (Q9HCT0 whole entry, looked up): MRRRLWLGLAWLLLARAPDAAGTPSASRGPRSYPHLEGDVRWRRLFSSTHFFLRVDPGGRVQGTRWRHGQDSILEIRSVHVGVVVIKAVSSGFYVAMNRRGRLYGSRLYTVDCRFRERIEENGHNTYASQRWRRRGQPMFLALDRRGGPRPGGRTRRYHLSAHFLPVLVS
# Ecoli rRNA inh OD600 = second read-out of Ecoli rRNA inh, no call of its own (marks repeat the call); OD600 change, %; measured here: OD600 growth;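 optical density of the mix in the first replicate; 0 = DMSO median and -100 = no signal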
# Ecoli rRNA inh RFP = recorded beside Ecoli rRNA inh, whose call it bears; RFP signal change, %; measured here: RFP humanized mutant strains;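 first replicate; 0 = DMSO median and -100 = no signal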
# * hit, by the source's call; i = inactive; ? = inconclusive; . = no result given; & = joins results of further samples. Not all compounds are listed. The share of hits here may be higher or lower than overall.
SMILES,HNF4A DNA FP,Ecoli rRNA inh,Ecoli rRNA inh OD600,Ecoli rRNA inh RFP,ALR inh,MLL AF4-AF9 inh,Ecoli growth,Vif A3G,FGF22 binding
COc1cccc(N2CCN(S(=O)(=O)c3ccc(CN4C(=O)c5cccnc5C4=O)cc3)CC2)c1,0.4,9,11,-0.9,2,-0.9,0.69,.,i
Clc1ccccc1Oc1cnc2ccccc2n1,4.4,.,.,.,-2,.,0.71,32%,.
O=C(N[C@@H]1CC[C@H](CCNS(=O)(=O)c2ccccc2)O[C@H]1CO)c1cccc(F)c1,.,2,2,-1.2,.,2.1,.,.,i
CCOC(=O)C1CCN(C(=O)CN2C(=O)c3ccccc3Sc3ncccc32)CC1,-1.1,1,0,-2.4,1,-4.3,0.68,-11%,i
Cc1cc(C)cc(OCCCCCNCCO)c1,-1.0,.,.,.,-26,.,0.68,?,.
Cc1ccc(S(=O)(=O)N2CCC(C(=O)N3CCN(c4ccccn4)CC3)CC2)cc1,7.7,15,11,0.4,-1,-1.3,0.75,.,i
Cc1ccc(/C(N)=N/OC(=O)CCc2ccccc2)cc1,-2.3,-2,-9,1.7,8,-0.4,0.71,0%,i
O=C(Nc1ccon1)c1csc2c1CCCC2,-1.4,-25,-23,-11,-1,-38,0.69,-1%,i
COc1ccc(CNc2ccc(C)cc2)cc1Br,0.1,.,.,.,.,.,0.71,6%,.
Cc1cc(C)nc(SCc2cc(=O)c(OC(=O)c3ccco3)co2)n1,-2.8,3,12,7.5,21,-2.1,0.7,.,i
O=C(c1ccc(OC2CCN(C/C=C/c3ccc(F)cc3)CC2)cc1)N1CCCC1,-3.1,1,-1,0.2,50,6.0,0.6,-3%,i
Cc1nc(C)c(C(=O)Nc2ncc([N+](=O)[O-])s2)o1,-18,0,3,17,.,-1.7,0.73,.,i
C[C@H](CO)N1C[C@H](C)[C@H](CN(C)Cc2ccccc2)Oc2cc(C#CC3CC3)ccc2S1(=O)=O,.,-3,-23,5.3,.,-0.6,.,.,i
Cc1cc(C)n2c(SCCO)nnc2n1,-2.8,.,.,.,-7,-0.7,0.69,-1%,i
CCN(C(=O)Cc1cccs1)c1nnc(-c2cc(OC)c(OC)c(OC)c2)s1,-3.0,.,.,.,3,.,0.75,3%,.
CCCCC(=O)N/N=C(\C)CC(=O)Nc1ccccc1Br,-0.4,.,.,.,10,.,.,6%,.
Cc1ccc(S(=O)(=O)N2CCC(C(=O)OCC(=O)N(CCC#N)c3ccc(F)cc3)CC2)cc1C,0.1,1,-5,4.1,-7,-0.9,0.71,-4%,i
CC(C)CN(C(=O)Cn1nnc(-c2ccc(F)cc2)n1)C1CCS(=O)(=O)C1 (configuration not stated),-3.0,9,10,1.3,-3,1.2,0.68,7%,i
COc1ccc(-c2noc(-c3ccc(C)cc3)n2)cc1,4.0,.,.,.,-6,.,0.7,2%,.
Cc1cc(C)cc(OCC(=O)N/N=C\c2cn(C)nc2C)c1,3.0,3,6,3.7,-3,-1.2,.,.,i
COc1cccc(NC(=O)N(C)C[C@H]2OCc3ccccc3-c3c(n(C)c4ccccc34)C(=O)N([C@H](C)CO)C[C@H]2C)c1,.,1&2,-3&-9,3.6&2.9,.,1.9&1.4,.,.,i
CCN(Cc1nc2cc(Cl)ccc2c(=O)[nH]1)C(=O)c1cc(C2CC2)nn1-c1ccccc1,-1.7,-29,-42,-1.1,.,0.8,0.71,-6%,i
CC(C)NC(=O)N(C)C[C@H]1OCCCC[C@@H](C)Oc2ccc(NC(=O)Cc3ccccc3)cc2C(=O)N([C@H](C)CO)C[C@@H]1C,.,3,6,1.0,.,-2.6,.,.,i
CCOC(=O)CSc1nnc(-c2cccnc2)o1,-0.8,.,.,.,7,.,0.74,11%,.
C/C(=N\NC(=O)c1cccc(N/N=C(\C)c2ccc([N+](=O)[O-])cc2)c1)c1ccc([N+](=O)[O-])cc1,5.0,10,6,2.2,-4,0.9,.,-1%,i
# Next structures follow.
SMILES,HNF4A DNA FP,Ecoli rRNA inh,Ecoli rRNA inh OD600,Ecoli rRNA inh RFP,ALR inh,MLL AF4-AF9 inh,Ecoli growth,Vif A3G,FGF22 binding
Cc1cccc(NC(=O)c2cc(C)nc3ccccc23)c1,3.4,2,4,-1.3,-2,-0.7,0.73,-2%,i
Cc1cc2nn(-c3cccc4ccccc34)nc2cc1N,6.7,.,.,.,-1,.,0.73,33%,.
Cc1csc(=O)n1CCC(=O)NCc1ccc(F)cc1,-0.7,10,1,-2.1,-5,-0.6,0.7,.,i
Cc1ccc(OCC(O)Cn2c3ccccc3c3ccccc32)cc1 (configuration not stated),0.5,.,.,.,-8,.,0.7,2%,.
O=C(Nc1ccc(Cl)cc1)N1CCN(C(=O)C2CCCO2)CC1 (configuration not stated),-2.5,2,4,-4.2,-3,-2.0,0.68,.,i
O=C(Nc1nnc(SCC(=O)N2CCOCC2)s1)c1ccccc1Cl,-0.9,-12,-7,-0.9,5,3.9,0.72,16%,i
COc1cccc(C(=O)NNC(=O)C(=O)Nc2cccc(Cl)c2C)c1,0.9,-10,-11,4.7,.,-1.4,0.68,.,i
O=C(CCC(=O)c1cccs1)NCc1cccnc1,-1.2,7,-1,0.5,-22,-0.1,0.69,.,i
Cc1nnc(SCCCOc2ccccc2)nc1C,1.3,-3,-3,0.3,-1,-1.1,0.71,.,i
CNC[C@H]1Oc2ncc(-c3cccc(F)c3)cc2C(=O)N([C@H](C)CO)C[C@H]1C,.,7,14,-1.8,.,1.3,.,.,i
CC(=O)c1cccc(NC(=S)N2CCCC2)c1,0.2,4,9,-0.6,-3,-1.4,0.65,.,i
CCOC(=O)c1ccc(NS(=O)(=O)c2cc(-c3nnnn3CC)ccc2OC)cc1,-1.2,.,.,.,-14,.,0.71,-6%,.
O=C(C[C@H]1CC[C@@H]2[C@H](COC[C@@H](O)CN2CCC(F)(F)F)O1)NCC1CC1,.,2,5,0.8,.,1.8,.,.,i
COc1ccc(OCC(=O)N2CCN(C(=O)c3ccc([N+](=O)[O-])cc3)CC2)cc1,2.3,0,3,-0.3,-9,-1.5,0.69,.,i
CCn1nc(C(=O)OCC(=O)N2c3ccccc3CC2C)c2ccccc2c1=O (configuration not stated),1.0,.,.,.,.,.,0.72,-2%,.
CCc1c(C(=O)NNC(=S)NCC(C)C)csc1C,3.3,5,-2,-10,-10,1.3,0.71,?,i
O=C1OC(c2ccccc2)(c2ccccc2)c2ccccc21,-1.1,-6,-23,-9.8,.,-0.9,0.71,4%,i
C[C@@H]1CN([C@@H](C)CO)C(=O)c2cc(NC(=O)CCCCCC(=O)Nc3ccccc3N)ccc2O[C@@H](C)CCCCO[C@@H]1CN(C)CC1CCCCC1,.,1,3,3.0,.,-0.4,.,.,i
Cn1c(SC2CCCCC2=O)nnc1-c1ccccc1F (configuration not stated),-5.5,7,17,-0.9,25,-3.6,0.65,4%,i
COc1ccccc1NC(=O)N1C[C@@H](O)COC[C@H]2O[C@H](CC(=O)NCCc3ccncc3)CC[C@@H]21,.,4,13,0.1,.,0.1,.,.,i
O=C1NC(=S)NC1=Cc1ccc(O)cc1,12,-8,5,3.3,.,8.5,0.66,4%,i
Cc1noc(C)c1S(=O)(=O)Nc1ccc2c(c1)CC(=O)N([C@H](C)CO)C[C@@H](C)[C@@H](CN(C)C(=O)NC1CCCCC1)O2,.,4,1,0.1,.,-0.8,.,.,i
CCOC(=O)c1ccccc1NC(=O)CSc1nc2ccccc2c(=O)[nH]1,0.3,11,1,-1.5,-1,-5.1,0.71,-4%,i
COc1ccc(NC(=O)CSc2nnc(-c3ccc(C)cc3)n2N)cc1,-1.5,.,.,.,-1,.,0.74,-4%,.
CC(=O)c1ccccc1NS(C)(=O)=O,1.9,8,6,9.8,-5,-1.4,0.7,11%,i

# Rewritten as labelled records: entries from further up.
> Cn1c(SC2CCCCC2=O)nnc1-c1ccccc1F (configuration not stated)
- HNF4A DNA FP: -5.5
- Ecoli rRNA inh: 7
- Ecoli rRNA inh OD600: 17
- Ecoli rRNA inh RFP: -0.9
- ALR inh: 25
- MLL AF4-AF9 inh: -3.6
- Ecoli growth: 0.65
- Vif A3G: 4%
- FGF22 binding: i
> Cc1cccc(NC(=O)c2cc(C)nc3ccccc23)c1
- HNF4A DNA FP: 3.4
- Ecoli rRNA inh: 2
- Ecoli rRNA inh OD600: 4
- Ecoli rRNA inh RFP: -1.3
- ALR inh: -2
- MLL AF4-AF9 inh: -0.7
- Ecoli growth: 0.73
- Vif A3G: -2%
- FGF22 binding: i
> CNC[C@H]1Oc2ncc(-c3cccc(F)c3)cc2C(=O)N([C@H](C)CO)C[C@H]1C
- HNF4A DNA FP: .
- Ecoli rRNA inh: 7
- Ecoli rRNA inh OD600: 14
- Ecoli rRNA inh RFP: -1.8
- ALR inh: .
- MLL AF4-AF9 inh: 1.3
- Ecoli growth: .
- Vif A3G: .
- FGF22 binding: i

# The list continues:
SMILES,HNF4A DNA FP,Ecoli rRNA inh,Ecoli rRNA inh OD600,Ecoli rRNA inh RFP,ALR inh,MLL AF4-AF9 inh,Ecoli growth,Vif A3G,FGF22 binding
CO[C@H]1CN(C)C(=O)c2ccc(NS(=O)(=O)c3ccc(-c4ccccc4)cc3)cc2OC[C@H](C)NC[C@@H]1C,.,-2,-4,-0.4,.,-1.0,.,.,i
O=C1CCCCN1CC(=O)N1CCCC(Nc2ccc(F)cc2)C1 (configuration not stated),-1.7,-1,-14,1.5,91*,-3.1,0.69,.,i
C[C@H](CO)N1C[C@H](C)[C@@H](CN(C)Cc2ccc(Oc3ccccc3)cc2)Oc2ccc(NC(=O)Nc3ccccc3)cc2CC1=O,.,6,2,1.6,.,1.8,.,.,i
CCN(CC)S(=O)(=O)c1ccc(-c2nnc(SCC(=O)Nc3ccc(OC)c(OC)c3)o2)cc1,-2.1,.,.,.,-9,.,0.73,5%,.
CCOC(=O)c1oc2ccc(Br)cc2c1COC(=O)C1=COCCO1,-3.5,3,-5,-0.4,-1,1.7,0.69,-5%,i
COc1ccc(NC(=O)c2ccc(CN3CCc4ccccc4C3)cc2)c(OC)c1,1.3,-11,-8,-8.4,-29,3.1,0.69,-3%,i
Cn1c(=O)[nH]c2ccc([N+](=O)[O-])nc21,-2.3,.,.,.,0,.,0.7,-2%,.
COC(=O)C1=C(C)N(Cc2ccccc2)C(=NCCCCO)N[C@H]1CCc1ccccc1,-3.3,-55,-79,-28,-1,1.5,.,.,i
CCCCc1cc2c(cc1NC(=O)CN1CCCCC1)OCCO2,-3.7,-18*,7.5*,0.2*,-11,0.9,0.66,14%,i
O=C(COC(=O)c1ccccn1)NNC(=O)c1ccc([N+](=O)[O-])cc1,-0.9,14,12,0.7,.,1.3,0.63,-6%,i
COC(=O)c1cc(=O)n2c(-c3ccc(OC)cc3)csc2n1,2.0,.,.,.,4,.,0.73,-2%,.
CN(C)CCOc1ccc2c(c1)Sc1ccccc1CC2=O,-3.9,1,-1,7.9,-66,1.3,0.62,-8%,i
COc1cccc(C(=O)Nc2nnc(S(=O)(=O)N3CCOCC3)s2)c1,-0.2,-11,-17,-3.8,8,0.9,0.69,-9%,i
NC(=O)C1=C[C@H](c2ccc(C(F)(F)F)cc2)C[C@H](OCc2ccc(CO)cc2)O1,4.3,-37,-56,4.6,.,5.4&1.1,.,8%,i
N#C[C@@H]1[C@@H](c2ccccc2)[C@H](CO)N1C(=O)Nc1cccc(F)c1,.,-1,-8,-2.5,.,0.2,.,.,i
Cc1cc(Nc2ccccc2)cc(=O)n1C,0.6,12,7,0.4,3,.,0.63,.,i
CCOC(=O)c1[nH]c(=O)[nH]c1CSCCO,-0.3,.,.,.,46,.,0.77,22%,.
CC(CCc1ccccc1)NCC(O)c1cccc([N+](=O)[O-])c1 (configuration not stated),-1.5,9,6,-1.9,0,0.6,0.67,-6%,i
